Bioassay records from PubChem.
AID504770: E. coli YBA685 growth inhibition, screen for V. cholerae RctB inhibitors; z-score (test concentration not listed); E. coli YBA685 rctB-dependent plasmid, OD600 growth, 3 h; stronger effect = lower value; 130,000 compounds, 0.27% hits; AID 504770;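 active = z-score under -2 on both plates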;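 note: wells of about 30 µL received 100 nL stock; score is relative to mean and SD of the test wells; the first replicate is given; strong numbers were not always called active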
Ba CapD inh: inhibitors of Bacillus anthracis CapD enzyme; purified CapD enzyme, fluorescence intensity read-out; stronger effect = lower value; some hits fall short of the stated cut; z-score (concentration not given with the values); 140,000 compounds, 0.23% hits; AID 492967;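 active = z-score under -4 in either of two replicates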;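 note: stock transfer was 100 nL into about 40 µL; score is relative to mean and spread of the plate; one replicate is shown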
* marks the source's active call; other numbers are inactive results; . = not tested or not shown. Not a hit list (roughly 0.41% active in at least one column).

SMILES | AID504770 | Ba CapD inh
Cc1c(C(=O)NN)nn(-c2ccc(C(C)(C)C)cc2)c(=O)c1C#N | -1.05 | -1.83
CC(C)(C)C(=O)OCC(=O)Nc1ccccc1 | 0.05 | 0.16
Fc1ccc(Oc2ncccn2)c(Cl)c1 | -0.35 | .
CCOC(=O)c1[nH]c2ccc(OC)cc2c1NC(=O)CN1CCOCC1 | . | 23.5
O=C(NCC1CCCCC1)c1ccc(=O)n(Cc2ccccc2)n1 | 0.6 | .
C(=NCCN=Cc1ccc2c(c1)OCO2)c1ccc2c(c1)OCO2 | . | 0.225
CCN(CC)P(=S)(c1ccc(/C=N/NC(N)=O)o1)N(CC)CC | 0.4 | .
Cc1nn(-c2ccccc2)c(Cl)c1CN1CCN(Cc2ccc3c(c2)OCO3)CC1 | 0.4 | .
O=C(Oc1c(-c2ccccc2)c(=O)n2c3c(cccc13)CC2)c1ccco1 | -0.7 | 71.4
O=C(Nc1ccc(Cl)cc1Cl)c1cnccc1C(F)(F)F | . | -0.115
CC(=O)Nc1cc2c(C)cc(=O)oc2c2c1OCC2=O | 1.85 | 47.6
COc1ccc(S(=O)(=O)N2CCCC(C(=O)NC3CC3)C2)cc1OC (stereo not drawn) | 0.15 | .
CCN(C(=O)c1ccc(OC)cc1)c1ccccc1OC | -0.1 | -0.89
Cc1cc(C(=O)CSc2nnc(N)s2)c(C)n1-c1c(C)n(C)n(-c2ccccc2)c1=O | 0.15 | .
Cc1csc(-c2cn(C(C)C)c(=O)n(Cc3ccccc3)c2=O)n1 | -0.7 | 30.5
CCCCn1c(CNC(=O)c2ccc(C)c(C)c2)nnc1SC(C)C(=O)Nc1sc(C(=O)OCC)c(C)c1C(=O)OCC (stereo not drawn) | . | -0.315
CN(CC(=O)N1CCn2c1nc1ccccc12)S(=O)(=O)c1ccc2c(c1)CCC(=O)N2 | -0.2 | -0.385
Cc1ccc(C)c(NC(=O)CSC2=C(C#N)C(c3cccs3)C3=C(CCCC3=O)N2)c1 (stereo not drawn) | . | 3.85
CC(=O)Nc1cc(C(=O)NCc2ccccc2)ccc1Sc1ccc(Cl)cc1 | -0.65 | -0.575
O=C(c1cc2ccccc2oc1=O)N1CCSC1c1ccc(Br)cc1 (stereo not drawn) | . | 0.015
Cc1ccc(C2=NNC3(CCOC(C)(C)C3)S2)cc1 (stereo not drawn) | -0.35 | 2.21
CC(C)C(NC(=O)c1ccccc1)C(=O)OCc1cc(=O)n2ccsc2n1 (stereo not drawn) | -0.2 | .
CCNCC(=O)Nc1cc(C(F)(F)F)ccc1OCCOC | 1.05 | .
Clc1ccc2nc(-c3ccco3)cc(-c3ccccc3)c2c1 | 2.05 | -0.37
CCOc1ccc(-c2csc(-c3cc4cc(OC)ccc4oc3=O)n2)cc1 | . | -0.345
COc1cc2c(cc1OC)C(C(=O)N(C)c1ccc(Cl)cc1)C1CCCCN1C2=O (stereo not drawn) | -0.45 | 0.07
O=C(c1cc2ccccc2c(=O)o1)N1CCCCCC1 | 0.2 | 3.32
Cc1csc(=NC2CCCCC2)n1/N=C/c1ccc(O)c(O)c1O | -0.1 | .
CCCC(=O)N=c1sc2c(OC)ccc(OC)c2n1C | 0.25 | .
COC(=O)c1sccc1-c1ccc(C(=O)Nc2cccc(Cl)c2)o1 | . | 13.2
O=S(=O)(Nc1cccc(-c2nnco2)c1)c1cc(C(F)(F)F)cc(C(F)(F)F)c1 | . | 0.8
CC(C)N(CCC#N)C(=O)Nc1ccccc1 | 0.3 | -0.01
O=C1CC(=O)CC(c2ccc3c(c2)OCO3)C1 | . | -0.295
CCCCn1nnc2c(=O)oc3ccccc3c21 | -0.9 | 6.72
Cc1ccc(C(=O)Nc2ccc(CN3CCS(=O)(=O)CC3)cc2)cc1C | -0.05 | 0.325
Cc1nc2ccc(S(=O)(=O)NC(C(=O)Nc3nc4ccc(Cl)cc4s3)C(C)C)cc2s1 (stereo not drawn) | 0.25 | 1.61
CCOC(=O)c1c(C)n(-c2ccccc2)c2c1cc(OC(=O)C1CCCCC1)c1ccccc12 | . | 0.305
O=C(Nc1ccc(Cl)cc1)c1cccs1 | . | 0.15
CCSc1nnc2c(n1)OC(C1CC=C(C)CC1)Nc1ccccc1-2 (stereo not drawn) | . | -0.23
Cc1ccc(COC(=O)NCCc2c[nH]c3ccc(O)cc23)cc1C | . | 0.11
O=C1/C(=C/c2ccc(-c3ccc(Br)cc3)o2)Sc2ccccc21 | . | 0.1
COC(=O)c1sccc1NC(=O)COc1ccc([N+](=O)[O-])cc1Cl | . | 0.155
Cc1ccc(OCC(O)CN2C(=O)NC(C)(C)C2=O)cc1 (stereo not drawn) | 0.95 | -1.01
O=C(CONC(=O)C12CC3CC(CC(C3)C1)C2)N1CCc2ccccc21 | 0.25 | .
CCC(=O)Nc1ccc2oc(-c3ccccc3Br)nc2c1 | 0.15 | 1.35
CCOC(=O)c1ccc(-n2ccnc2)c(NC(=O)c2ccccc2)c1 | 0.3 | 1
Cc1ccc(-c2csc(-c3ccncc3)n2)c(C)c1 | . | 10.8
NNC(=O)CSc1nc(-c2ccccc2)nc2c1CCCC2 | -0.7 | -0.475
N#Cc1ccc(CCOC(=O)N2CCN(c3cc(C(F)(F)F)ccn3)CC2)cc1 | . | 81.8
C=CCN=C(Cc1ccccc1)C1=C(O)CC(C)(C)CC1=O | -0.65 | -1.13
Cc1cccc(-n2nnnc2C2(N=Cc3ccccc3Cl)CCCCC2)c1 | . | -0.23
CCOC(=O)c1cc2c(cc1C(=O)OCC)[n+](CC)c(/C=C/C=C1N(CC)c3cc(Cl)c(Cl)cc3N1CC)n2CC | . | 0.1
Cc1nn2c(CN(C(=O)c3ccccc3)c3ccccc3)nnc2c2ccccc12 | -0.5 | 3.98
O=C1CCCN1CCc1ccccn1 | -0.5 | -0.005
O=C(Nc1ccc(Br)cc1)C12CC3CC(CC(C3)C1)C2 | 1.05 | 0.76
CCC1S/C(=N\S(=O)(=O)c2ccccc2)N(c2ccccc2)C1=O (stereo not drawn) | -0.35 | .
O=C(C1CCN(c2ccc(N3CCOCC3)nn2)CC1)N1CCN(c2ccccc2)CC1 | 0.55 | 0.87
COC(=O)c1cc(COC(=O)c2ccc3[nH]c4c(c3c2)CCCC4)oc1C | 0.15 | .
O=C(NCC(c1ccco1)N1CCCCC1)c1cccs1 (stereo not drawn) | -0.5 | .
O=c1ccn([C@@H]2O[C@H](COP(=O)(O)OP(=O)(O)OP(=O)(O)O)[C@@H](O)[C@H]2O)c(=O)[nH]1 | . | -0.29

(further entries)
SMILES | AID504770 | Ba CapD inh
c1ccc(-c2nc3nc4ccccc4n3[nH]2)cc1 | -0.35 | -0.195
CC(O)c1ccc(F)cc1 (stereo not drawn) | -0.35 | .
Cc1ccc2c(CN3c4ccccc4CC3C)cc(=O)oc2c1 (stereo not drawn) | 0.1 | .
Cc1cc(Cl)cc(Br)c1OCC(O)CN1CCN(c2ccc(C(F)(F)F)cn2)CC1 (stereo not drawn) | . | 0.655
O=C1CSC(c2ccco2)N1Cc1ccccc1 (stereo not drawn) | -0.4 | .
O=C(CSc1nc(C(F)(F)F)cc(=O)[nH]1)c1ccc(Cl)cc1 | -0.05 | 0.265
CC(C)COc1ccc(/C(=N\O)c2ccccc2)cc1 | -0.2 | -1.25
CC1(C)C=C(c2ccc(C3=CC(C)(C)NC(C)(C)C3)s2)CC(C)(C)N1 | 0.65 | -0.64
CCOC(=O)c1sc(N)c(C#N)c1COC(=O)c1c(C)nn(-c2ccccc2)c1Cl | -0.6 | .
COc1cccc(CNc2nc3ccc(C)cc3n3cnnc23)c1 | 0.55 | 1.75
N#C/C(=C\c1ccccc1)C(=O)N1CCCC1 | 0.6 | .
CSC1=NC2(CC(c3ccccc3)c3cc(Cl)c(O)cc3O2)CC(C)(C)N1 (stereo not drawn) | . | -0.145
Brc1[nH]nc2ccccc12 | -2.15 | .
O=C(Nc1ccc(Cl)c(Cl)c1)C1C2CC/C=C\CCC21 (stereo not drawn) | 0.5 | -0.285
CC(NC(=O)c1ccccc1)c1cccs1 (stereo not drawn) | -0.2 | 0.06
CCSc1nnc(-c2cccc(S(=O)(=O)N(CC)CC)c2)n1N | -1 | .
COC(=O)c1ccc(Oc2ncnc3sc4c(c23)CCCC4)cc1 | -0.05 | 0.655
CCCCNC(=O)CC1N=C2c3ccccc3N=C(SCC(=O)Nc3ccccc3OC)N2C1=O (stereo not drawn) | -1.75 | 1.4
O=C(O)c1ccc(CSC2CCCCC2)cc1 | -0.3 | 51.5
CCN(CC)S(=O)(=O)c1ccc(/C=C/C(=O)Nc2ccccc2C)cc1 | 0.4 | 0.045
COc1cc(/C=C2\SC(=S)N(CC(=O)Nc3nc4ccccc4s3)C2=O)cc(OC)c1OC | . | -1.92
CCOP(C)(=O)C1(C#N)CC1 (stereo not drawn) | 1.25 | 0.675
CCC(=O)c1ccccc1OCCCSc1ncccn1 | -0.7 | 0.76
CN1CCc2nc(SCc3cccc(C(F)(F)F)c3)c(C#N)cc2C1 | -0.05 | 0.175
CCCn1c2ccccc2c2nnc(SCC(=O)NCc3ccc4c(c3)OCO4)nc21 | 0 | -0.46
Nc1ccccc1Nc1c([N+](=O)[O-])cc(C(F)(F)F)cc1[N+](=O)[O-] | . | -0.58
Cc1ccc(Cn2c(O)c(N=Nc3ccc(Cl)cc3)c3ccccc32)cc1 | . | -0.22
O=C(C1CCN(c2ncc(C(F)(F)F)cc2Cl)CC1)N1CCCC1 | . | -0.22
CCOc1ccc(CCNC(=O)c2coc(=O)c3ccccc23)cc1OCC | -0.1 | -0.435
Cc1cc(C)c2c(N=CN(C)C)c(C(=O)N3CCN(c4ncccn4)CC3)sc2n1 | -1 | 0.825
Cc1ccc(Sc2cnc3ccccc3n2)cc1 | 1.25 | -0.435
CCN(CC)Cc1c(C)c(C)c(C)c(C)c1C | 0.15 | 0.93
CCCNC(=O)NC1CCN(c2nc3ccccc3s2)CC1 | 1 | -0.185
O=S(=O)(c1ccc2oc(-c3cccnc3)nc2c1)c1ccc2oc(-c3cccnc3)nc2c1 | -0.7 | .
CCOc1cc(/C=c2/sc3nc4cc(C)c(C)cc4n3c2=O)ccc1OCc1ccccc1F | . | 0.16
O=C(O)C(c1c(O)c2ccccc2oc1=O)c1c(O)c2ccccc2oc1=O | -1.75 | -0.5
COc1ccc(-c2noc(CN(C(=O)Nc3ccc(C)cc3)C(C)C)n2)cc1 | 0.5 | 0.085
CC12CCCCC1C1(C=CC(=O)C=C1)C(c1ccccc1)=N2 (stereo not drawn) | -0.3 | -0.42
O=C(N/N=C/c1ccccc1OCc1ccccc1)c1csc(CS(=O)(=O)Cc2ccco2)n1 | . | -0.425
c1ccc(Oc2ccc(-n3cnnn3)cc2)cc1 | -1.15 | 3.61
Cc1ccc(S(=O)(=O)N(Cc2nccn2C)C(C)C)cc1 | -0.8 | -0.325
CC(C)C(NC(=O)COc1ccc(Br)cc1)C(=O)O (stereo not drawn) | 0.1 | .
NS(=O)(=O)c1ccc2nc3c(nc2c1)-c1cccc2cccc-3c12 | -0.5 | .
CCC(Sc1nc2ccccc2o1)C(N)=O (stereo not drawn) | -0.2 | .
CC(CCOC(=O)NCc1ccc(Cl)cc1)c1ccccc1 (stereo not drawn) | . | -1.36
O=C(Nc1ccccc1Cl)c1ccc2c(c1)C(=O)N(Cc1ccco1)C2=O | -0.75 | 3.54
CN(C(=O)CSc1nc2ccccc2o1)C1CCCCC1 | -0.4 | .
NC(=O)c1cccnc1Oc1ccc(Cl)cc1 | . | -0.09
C=CCN(CC=C)c1nc(-c2ccc([N+](=O)[O-])cc2)nc2ccccc12 | . | 0.08
O=C(NNC(=O)c1cccnc1Oc1ccccc1)c1cccnc1Oc1ccccc1 | . | 8.06
CCOC(=O)CSc1nc2ccccc2n1C(=O)OCCCl | . | -0.08
CNC(=O)CCCc1nc(-c2ccc(OC)cc2)no1 | 0.25 | 0.36
CC1(C)CC(=O)c2c(n(S(=O)(=O)c3ccccc3)c3ccc(NS(=O)(=O)c4ccccc4)cc23)C1 | . | -0.275
Cc1cccc(C)c1-n1nnnc1SCc1cc(Cl)c2c(c1)OCCO2 | -0.4 | .
CN(C(=O)c1c[nH]c2ccc(S(=O)(=O)N3CCC4(CC3)OCCO4)cc2c1=O)C1CCCCC1 | -0.25 | 20.1
CCOC(=O)c1ccc(N=C2SC(C(=O)Nc3ccccc3F)CC(=O)N2C)cc1 (stereo not drawn) | . | 0.445
O=C(Nc1ccc2ccccc2c1)C1CCCN1C(=O)OCc1ccccc1Cc1ccccc1 (stereo not drawn) | . | 0.855
